# Screening results deposited in PubChem by National Center for Advancing Translational Sciences (NCATS).
# Menin-MLL FL inh: qHTS Assay for Inhibitors Targeting the Menin-MLL Interaction in MLL Related Leukemias: Competition With Fluorescein Labeled MLL-derived Peptide | FP activity change, % at 61.4 µM | 290,000 tested, under 10 active | Fluorescence polarization, fluorescein-MLL peptide displacement from menin; inconclusive = falling polarisation curve, or a change in total fluorescence; inactive = total fluorescence flat and polarisation flat or rising; no compound was filed as active; the % refers to the polarisation; negative = inhibition;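 further: % of control where 0% means no effect; inhibitors lower the polarisation; unlabelled MLL peptide was the positive control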
# Sfp inh: qHTS Assay for Inhibitors of Bacillus subtilis Sfp phosphopantetheinyl transferase (PPTase) | 3.5% of 310,000 active | Potency, µM, for the others: max response, negative = inhibition, actives largely listed as inhibitors | Biochemical Sfp PPTase activity, qHTS | AID 1490, 2009; active means well fitted inhibition curve with a large enough effect; inconclusive means small, poorly fitted or top-dose-only effect, or another doubt; inactive means no such curve, though single readings can be large or run the other way;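 further: the enzyme is Sfp with the accession as filed and its product quenches rhodamine fluorescence; potency means the concentration at half of the fitted maximal effect; 0% = enzyme reaction without inhibitor and -100% = no enzyme wells; top concentration of the series not given in the record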
#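 After 15 min at room temperature with compound, 15 nM Sfp received 5 uM rhodamine-CoA plus 12.5 uM BHQ-2-ybbR (50 mM Hepes pH 7.6, 10 mM MgCl2). Rate came from the fluorescence difference over 30 min, ex 525/em 598 nm.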
# gsp antagonist: qHTS for Antagonists of gsp, the Etiologic Mutation Responsible for Fibrous Dysplasia/McCune-Albright Syndrome: qHTS; gsp-mutant cells, cAMP HTRF, 30 min; control for the full effect not named in the record; Potency, µM (titrated, usually from 76.9 µM), without a hit: at the top dose activity change, negative = inhibition, hits mostly inhibitors; 0.4% of 340,000 active; active = falling curve of any shape with a large fitted effect; inconclusive = falling curve, mostly with a smaller effect; inactive = flat or rising curve; cell line not stated here;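 further: intracellular cAMP measured with PDE inhibitor Ro 20-1724 present during compound exposure; potency means the concentration at half of the fitted maximal effect; on the % scale 0 is the no-effect control and ±100 the full control effect; nearly all actives have a fitted effect of over 65% in size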
#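 Cells in G418 medium, seeded 16-24 h, 37C; buffer exchange to DPBS + 1 mM CaCl2, 0.5 mM MgCl2, 0.05% BSA; cpds in DMSO + […] (300 uM stock), 30 min 37C; HTRF cAMP detection.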
# ClpP mod: qHTS Assay for Activators of ClpP | 1.9% of 340,000 active | Potency, µM (titrated, usually from 57.5 µM), inactives show top-dose activity change, negative = active | purified B. subtilis ClpP, FRET peptide cleavage, 20 min | AID 651965, 2013; active = well fitted falling curve with a large enough effect; inconclusive = small, poorly fitted or top-dose-only effect; inactive = no such curve, though single readings can be large or run the other way; further: potency means the concentration at half of the fitted maximal effect; the source files actives as falling curves though it sought activators and does not explain the sign; nearly all actives have a fitted effect of over 65% in size; many hits overshoot -100%
# Target sequence (P80244 whole entry, looked up): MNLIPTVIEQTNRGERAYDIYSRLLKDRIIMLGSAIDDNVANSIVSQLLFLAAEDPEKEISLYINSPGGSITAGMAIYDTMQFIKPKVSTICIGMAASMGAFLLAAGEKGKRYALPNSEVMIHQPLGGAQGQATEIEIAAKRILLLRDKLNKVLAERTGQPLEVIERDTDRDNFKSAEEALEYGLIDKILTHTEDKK
#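 Buffer: 100 mM Tris/HCl pH8, 100 mM KCl, 0.05% low protease BSA, 2.5% glycerol, 0.01% Tween-20. ClpP 10 microg/mL final; 20 min RT; delta FRET normalized to ADEP and DMSO controls.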
# D2 PAM: Beta-Arrestin HTS for Positive Allosteric Modulators of the Human D2 Dopamine Receptor: Potentiators | D(2) dopamine receptor (Homo sapiens), P14416 | DiscoveRx D2 beta-arrestin cells, luminescence, 90 min; 100% = 57 uM dopamine signal | potentiation, % (no concentration beside the values) | 0.23% of 360,000 active | AID 624464, 2012; active = potentiation of 50% or more; inconclusive = 30% to 50%; inactive = 30% or less;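 further: compound concentration not given in the record; tested on top of an EC20 dose of dopamine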
#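 PathHunter beta-arrestin assay in DiscoveRx D2 cells. Compounds were added with an EC20 of dopamine (50 nM final) for 90 min at 37 deg C. Luminescence was read 1 h after detection reagent, with 57 uM dopamine as the EC100 control.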
# TRPV1 potentiator: HTS Assay for Compounds that Act as Potentiators of the Vanilloid Receptor 1; TRPV1-expressing cells, Fluo-8 calcium influx, capsaicin EC20 potentiation; host cell line not named in the record; control for the full effect not named in the record; potentiation, % at 8.33 µM; 0.02% of 320,000 active; AID 540277, 2011; Transient receptor potential cation channel subfamily V member 1 (Homo sapiens), Q8NER1; active means potentiation above 80%; inconclusive means 30% to 80%; inactive means below 30%; further: 0% is about no effect
# Target sequence (Q8NER1 whole entry, looked up): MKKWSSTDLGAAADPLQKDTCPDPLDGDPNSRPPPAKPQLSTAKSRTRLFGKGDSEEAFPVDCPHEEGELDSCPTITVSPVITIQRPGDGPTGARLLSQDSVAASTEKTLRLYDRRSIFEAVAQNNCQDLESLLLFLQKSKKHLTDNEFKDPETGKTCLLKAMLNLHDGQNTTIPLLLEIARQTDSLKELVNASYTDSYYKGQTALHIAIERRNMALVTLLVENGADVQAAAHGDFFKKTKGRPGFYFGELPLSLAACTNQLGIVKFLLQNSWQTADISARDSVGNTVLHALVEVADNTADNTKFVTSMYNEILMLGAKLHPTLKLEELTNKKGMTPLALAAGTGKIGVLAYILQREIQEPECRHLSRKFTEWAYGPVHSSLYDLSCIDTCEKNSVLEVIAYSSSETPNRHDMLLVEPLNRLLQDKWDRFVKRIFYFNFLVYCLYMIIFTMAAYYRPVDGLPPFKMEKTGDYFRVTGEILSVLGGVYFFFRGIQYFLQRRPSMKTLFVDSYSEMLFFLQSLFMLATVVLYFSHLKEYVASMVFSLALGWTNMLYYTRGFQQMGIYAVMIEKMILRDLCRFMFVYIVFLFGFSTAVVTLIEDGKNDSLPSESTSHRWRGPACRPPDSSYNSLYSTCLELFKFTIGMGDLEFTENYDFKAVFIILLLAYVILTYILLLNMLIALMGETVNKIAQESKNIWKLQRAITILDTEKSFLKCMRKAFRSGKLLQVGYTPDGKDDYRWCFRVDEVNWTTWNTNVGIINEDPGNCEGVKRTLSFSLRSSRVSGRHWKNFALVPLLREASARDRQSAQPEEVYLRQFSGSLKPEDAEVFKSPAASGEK
#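 Cells expressing TRPV1 were dye-loaded with Fluo-8 and read kinetically: 10 s baseline, 3 min after compound (agonist portion), then 2 min after EC20 capsaicin (allosteric enhancer portion). Calcium-bound dye fluorescence at 480/520 nm.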
# gsp agonist: qHTS for Agonist of gsp, the Etiologic Mutation Responsible for Fibrous Dysplasia/McCune-Albright Syndrome: qHTS; gsp mutant cells, cAMP HTRF, 30 min; control for the full effect not named in the record; Potency, µM (highest dose often 76.9 µM), for the others: at the top dose activation (cAMP increase), hits mostly activators; 0.13% of 340,000 active; AID 624287, 2012; active = well fitted activation curve with a large enough effect; inconclusive = small, poorly fitted or top-dose-only effect, or another doubt; inactive = no such curve, though single readings can be large or run the other way; cell line not stated here;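 further: phosphodiesterase inhibitor Ro 20-1724 added with compounds to block cAMP breakdown; potency means the concentration at half of the fitted maximal effect; nearly all actives have a fitted effect of over 60% in size; about a fifth of the inactives were tested at one dose only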
#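 Cells in DMEM/10% FBS with G418 were pretreated with compounds in DMSO plus […] (300 uM stock) for 30 min at 37C. cAMP was measured by HTRF (cAMP-d2 plus anti-cAMP antibody-K) after 30 min at room temperature.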
# * = called active by the depositor; ? = inconclusive; . = not tested or not shown; & = joins results of further samples; [ ] = remark or other dose.
# Every second line gives: Menin-MLL FL inh	Sfp inh	gsp antagonist	ClpP mod	D2 PAM	TRPV1 potentiator	gsp agonist
1) COc1ccc(C(=O)N/C(=C/c2ccc(Cl)cc2)C(=O)Nc2ccc(C(=O)O)cc2)cc1
→ .	16.4%	3.4%	1.3%	4.2	0.5	?
2) Cc1nnc(SCc2cc(=O)[nH]c(=S)[nH]2)s1
→ 3.4	20µM*	2.6%	.	-8.6	1.6	20.8%
3) CCn1c(SCC(=O)NC2CCCc3ccccc32)nnc1-c1cccs1 (stereo not given)
→ 4.8	19.8%	-2.0%	-5.4%	-5.3	12.1	4.7%
4) CC(C)C[C@H](CO)N(Cc1ccccc1)S(=O)(=O)N(Cc1ccccc1)[C@@H](CO)CC(C)C
→ .	.	-15.1%	-0.1%&-2.0%	-14.3	.	.
5) COc1cccc(C2=NN(C(=O)c3ccc(C)o3)C(O)(C(F)(F)F)C2)c1 (stereo not given)
→ -3.6	?	?	-9.9%	0.4	-4.9	-2.0%[15.4 µM]
6) CCn1nnnc1-c1ccc(OC)c(S(=O)(=O)Nc2ccc(C)c(C)c2)c1
→ 2.3	7.6%	3.4%	-10.8%	-19.4	-1.9	7.0%[15.4 µM]
7) CCOc1ccc(NC(=O)c2c(NC(=O)CN3CCCC3)sc3c2CCC3)cc1
→ .	18.1%	-4.9%	-4.0%	-10.4	7.6	-9.2%
8) COc1ccc(-c2cc(C(=O)OCC(=O)NC(C)(C)C)c3ccccc3n2)cc1
→ 4.5	-6.4%	.	.	.	-2.6	.
9) O=C(COC(=O)c1nc(Cl)ccc1Cl)NNC(=O)c1cccs1
→ .	.	12.5%	-4.0%	11.1	-9.6	-8.6%
10) CN(C(=O)c1ccc(NC(=O)C2CC=CCC2C(=O)O)cc1)c1ccccc1 (stereo not given)
→ 3.9	3.8%	2.9%	0.8%	0.2	3.3	4.9%
11) O=C(CC1(O)C(=O)Nc2cc(Cl)cc(Cl)c21)c1ccccc1O (stereo not given)
→ 0.2	9.6%	-5.2%	-2.4%	-37.3	20.3	22.7%
12) CCOCCn1c(N2CCN(c3ccc(OC)cc3)CC2)nc2c1c(=O)n(C)c(=O)n2C
→ 1.4	6.6%	2.9%	-1.8%	-2.1	-21.6	25.6%
13) Cc1ccc2c(c1)C(O)(CC(=O)c1cccnc1)C(=O)N2 (stereo not given)
→ 4.9	18.2%	8.2%	-1.6%	-30.0	2.9	8.1%
14) Cc1c(Cl)cccc1NC(=O)Nc1cc(C(C)(C)C)on1
→ -4.1	1.4%	-2.3%	-0.5%	-24.2	-28.0	3.0%
15) CCOC(=O)/C=C1\SCC(=O)N1CC(=O)NC(c1ccccc1)c1ccccc1
→ 0.2	?	-25.9%	6.2%	-3.5	-0.3	-10.5%
16) CN(C)CCCNC(=O)C(=O)NCC1OCCN1S(=O)(=O)c1cc(F)ccc1F (stereo not given)
→ .	.	8.0%	0.7%	-10.6	.	-13.4%[15.4 µM]
17) Cc1cccc(NC(=O)CCNS(=O)(=O)c2cccc3nonc23)c1C
→ -0.7	18.4%	-6.5%	.	-1.3	-4.1	-11.5%
18) O=C(CCC(=O)NCc1ccccc1)NCc1ccccc1
→ -1.8	18.1%	5.4%	1.1%	?	-9.2	-3.7%
19) COc1ccc(CCNC(=O)CCNS(=O)(=O)c2cccc3nsnc23)cc1OC
→ 2.3	16.8%	3.7%	-1.7%	-4.9	1.6	0.4%
20) COCCn1c(=O)c2c(nc3n2CC(C)CN3CCc2ccccc2)n(C)c1=O (stereo not given)
→ -4.2	9.5%	?	-2.4%	-13.6	-3.1	3.7%
21) Cc1cc(OCCCCCn2ccnc2)cc(C)c1Cl
→ 6.7	14.5%	1.9%	.	-6.3	-8.7	?
22) CCOc1ccccc1Nc1nnc(SCc2nnc(-c3cc(OC)c(OC)c(OC)c3)o2)s1
→ 13.9	11.6%	-5.0%	31.6µM*	2.1	11.4	-33.5%[inhibitor]
23) O=C(O)CSc1nc(-c2ccccc2)cc(=O)[nH]1
→ -0.6	14.5%	-3.1%	0.7%	-0.5	-2.6	-25.1%
24) Cc1c(NC(=O)CSc2nncc3ccccc23)c(=O)n(-c2ccccc2)n1C
→ -1.0	-10.5%	3.0%	-0.7%	-9.9	?	4.8%
25) CCOC(=O)/C(=N\Nc1cc(C(F)(F)F)ccc1Cl)N(CC)CC
→ 1.0	13.5%	-14.8%	-0.2%	-9.0	2.8	-26.4%
26) COc1cccc2cc(-c3n[nH]c(=S)n3C)oc12
→ 4.0	3.8%	-29.1%	0.4%	-33.7	14.6	16.1%[15.4 µM]
27) COc1ccc(C2CC(=O)C=C(NCCC(C)C)C2)cc1 (stereo not given)
→ 1.4	-16.3%	0.2%	-0.6%	-16.9	4.3	-8.0%
28) N#Cc1c(NC(=O)c2ccc(N3CCOCC3)c([N+](=O)[O-])c2)sc2c1CCCC2
→ 2.7	20.9%	10.3%	0.5%	-3.2	-4.5	-0.3%[15.4 µM]
29) O=C(NCc1ccco1)Nc1cccc([N+](=O)[O-])c1
→ -1.2	11.8%	-2.1%	.	-7.3	-21.3	-41.9%[inhibitor]
30) CCOCCCNc1nc(C(F)(F)F)nc2c1nnn2Cc1ccccc1Cl
→ 0.4	-7.3%	-20.0%	-23.7%	-27.0	14.3	-11.8%
31) COc1cc(S(=O)(=O)N(Cc2cccs2)C2CC2)ccc1-n1cnnn1
→ .	.	-9.7%	1.4%	-8.8	.	-1.9%
32) O=C(CSc1nc2[nH]ncc2c(=O)[nH]1)Nc1ccccc1
→ -2.0	7.3%	9.0%	.	-3.8	-0.7	1.4%[15.4 µM]
33) CCCCOc1ccc(Cc2cnc(N)nc2N)cc1
→ -9.3	-7.0%	8.7%	.	-2.4	-23.6	9.2%
34) O=C(COC(=O)CCNS(=O)(=O)c1ccccc1)NC(=O)Cc1ccccc1
→ .	.	1.5%	0.5%	0.4	?	1.2%
35) COc1ccc(Br)cc1C(=O)Nc1ccc(NC(=O)c2ccco2)cc1
→ 4.6	11.9%	9.3%	312.6%	-9.6	11.6	26.0%
36) Cc1ccc(-n2nc(C(=O)O)cc2-c2ccc(Cl)cc2)cc1
→ 0.8	30.6%[activator]	-29.8%	.	-5.0	-7.7	11.3%[15.4 µM]
37) CCOC(=O)c1sc(NC(=O)CN2C(=O)C3CC=CCC3C2=O)nc1C (stereo not given)
→ .	.	-2.5%	-1.7%	-3.6	0.3	13.3%
38) OC(CN1CCCCC1)CN(c1ccccc1)c1ccccc1 (stereo not given)
→ -2.1	-13.9%	-3.7%	-16.1%	-40.0	-13.5	7.9%
39) CN(C)S(=O)(=O)c1ccc(NS(=O)(=O)/C=C/c2ccccc2)cc1
→ 3.1	-1.0%	-12.6%	2.3%	2.1	-1.5	-25.8%
40) CC(=O)c1sc(NC(=O)COc2ccc(Cl)cc2Cl)nc1C
→ 1.5	13.9%	6.0%	-1.1%	-0.4	-0.4	-41.4%[inhibitor]
41) O=C(/C=C/c1ccc(Cl)cc1)N1CCN(CCN2C(=O)c3cccc4cccc(c34)C2=O)CC1
→ .	.	5.0%	0.5%	-8.5	.	-20.5%
42) COC(=O)c1cn(NC(=O)c2cccc(F)c2)c(=O)c2ccccc12
→ 1.7	15.1%	13.2%	-2.4%	10.1	-23.4	-9.1%
43) Cc1nn(-c2ccccc2)c(N)c1N=Nc1ccccc1
→ 2.7	-2.5%	-7.7%	-3.7%	-11.7	2.2	2.7%
44) CCN1CCN(c2ccc(S(=O)(=O)N3CCOCC3)cc2NC(=O)/C=C/c2ccc(OC)c(OC)c2)CC1
→ .	.	1.5%	-11.3%	-1.9	2.1	-38.1%[inhibitor]
45) O=C(CN1C(=O)CSC1=O)c1ccccc1
→ 1.8	-6.5%	14.2%	-0.5%	-10.9	-11.2	41.0%
46) CC(C)CN1CCC(=O)N(CCN=[N+]=[N-])CC1
→ 2.7	6.1%	8.4%	0.9%&-1.1%	-17.4	-4.4	.
47) CCC(C)NC(=S)N1CCN(C)CC1 (stereo not given)
→ 1.2	-18.5%	5.6%	.	-6.5	-0.3	40.0%[15.4 µM]
48) CCN1CCCC1CNC(=O)c1ccc2c(c1)NC(=O)/C(=C\c1ccccc1Cl)S2 (stereo not given)
→ .	.	.	50.5%	-27.7	.	-19.8%
49) CC(C)[C@H](NC(=O)c1ccccc1)C(=O)OCC(=O)N1CCCCCC1
→ 2.1	29.3%	4.9%	0.5%	-17.4	1.1	1.0%
50) Cc1[nH]c(=O)c(C#N)c(C)c1CSc1ncccn1
→ .	.	9.9%	-1.0%	-7.5	.	20.2%[15.4 µM]

# The results go on:
# Every second line gives: Menin-MLL FL inh	Sfp inh	gsp antagonist	ClpP mod	D2 PAM	TRPV1 potentiator	gsp agonist
51) COc1cc2ccccc2cc1C(=O)N1CC(C)OC(C)C1 (stereo not given)
→ .	.	0.1%	-13.3%	-29.1	.	2.1%
52) Cc1cccc(N(CC(=O)N2CCN(C)CC2)S(=O)(=O)c2ccccc2)c1
→ -5.3	10.7%	-3.0%	.	-9.0	-3.4	6.3%
53) Cc1cc(C)c2sc(NC(=O)C3CC3)nc2c1
→ -10.5	4.0%	-10.4%	25.5%	-0.6	0.5	-12.8%
54) Cc1c(OCC(=O)C(C)(C)C)ccc2c3c(c(=O)oc12)CCCC3
→ 1.0	4.9%	-5.4%	-24.3%	-1.1	5.1	-10.2%
55) Cc1ccccc1NC1=C(Cl)C(=O)OC1NC(=O)c1ccccc1 (stereo not given)
→ 2.7	5.7%	5.6%	-1.2%	-17.2	-5.6	5.6%
56) CCOc1ccc(CNC23CN4CN(CN(C4)C2)C3)cc1
→ 1.5	26.2%	-2.5%	0.7%	-4.2	2.1	-27.1%
